Rango-impB inh – Rango-importin beta binding inhibition; Potency, µM (top dose mostly 92.2 µM), inactives show at the top dose inhibition of complex formation; Q14974; hit rate 0.031% among 340,000; Rango CFP/YFP FRET sensor + importin beta, 45 min; active = rising FRET ratio curve, often small or poorly fitted; inconclusive = mostly compound fluorescence or quenching in the first reads; inactive = flat curves in all reads;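 further: potency means the concentration at half of the fitted maximal effect; 0% = DMSO wells and 100% = buffer wells lacking importin beta; nearly all actives have a fitted effect of over 15% in size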
Target sequence (Q14974 whole entry, looked up): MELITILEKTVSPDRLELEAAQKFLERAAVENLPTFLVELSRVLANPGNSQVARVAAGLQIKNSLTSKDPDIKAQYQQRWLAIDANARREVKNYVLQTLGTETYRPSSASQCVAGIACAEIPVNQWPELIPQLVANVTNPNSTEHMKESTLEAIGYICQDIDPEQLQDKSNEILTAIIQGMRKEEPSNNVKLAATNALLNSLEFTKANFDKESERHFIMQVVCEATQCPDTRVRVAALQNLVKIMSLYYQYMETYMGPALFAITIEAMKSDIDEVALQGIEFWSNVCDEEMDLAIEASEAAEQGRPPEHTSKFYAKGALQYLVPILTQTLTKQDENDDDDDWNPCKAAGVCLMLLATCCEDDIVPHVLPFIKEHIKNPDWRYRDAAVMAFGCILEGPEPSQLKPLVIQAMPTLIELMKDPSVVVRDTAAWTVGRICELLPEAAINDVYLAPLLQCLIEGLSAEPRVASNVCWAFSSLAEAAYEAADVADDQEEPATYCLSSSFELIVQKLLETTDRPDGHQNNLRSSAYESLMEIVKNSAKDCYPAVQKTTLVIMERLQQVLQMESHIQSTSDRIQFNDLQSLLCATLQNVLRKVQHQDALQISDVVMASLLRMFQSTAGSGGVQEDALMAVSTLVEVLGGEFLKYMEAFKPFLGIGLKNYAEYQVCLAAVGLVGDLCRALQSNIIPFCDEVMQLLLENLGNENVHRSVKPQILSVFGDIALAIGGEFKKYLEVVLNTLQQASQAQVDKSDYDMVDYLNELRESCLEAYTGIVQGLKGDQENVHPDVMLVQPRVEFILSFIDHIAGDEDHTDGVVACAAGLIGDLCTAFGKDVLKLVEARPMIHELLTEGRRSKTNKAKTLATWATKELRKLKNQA
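Inhibition scored from the CFP 486 nm/YFP 530 nm FRET ratio 45 min after adding 0.125 microM importin beta to 50 nM Rango biosensor preincubated 5 min with compound (room temperature, PBS with DTT, Tween-20, BSA). No-importin wells as positive control.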
miR-21 reporter – miR-21 reporter, rising signal; Potency, µM (series often up to 38.3 µM), inactives show top-dose reporter change, positive = more light; HeLa miR-21 FLuc reporter, luciferase, 48 h; 340,000 tested, under 10 active; active = well fitted rising curve with a large enough effect; inconclusive = small, poorly fitted or top-dose-only effect; inactive = no such curve, though single readings can be large or run the other way;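 further: % of control where 0% means no effect; miR-21 action dims this reporter so a rising signal means less miR-21 action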
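Luminescence from a firefly luciferase reporter carrying a miR-21 binding site downstream, stably expressed under a CMV promoter in HeLa cells that make miR-21 endogenously, reports miRNA modulation after 48 h compound exposure up to approximately 40uM final.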
GLA inh pH 4.5 – alpha-galactosidase A (human) inhibition, pH 4.5. AID 1467. purified enzyme, 4-MU-alpha-Gal fluorescence, pH 4.5. P06280. activity change, negative = inhibition, % at 105 µM. 230,000 tested, under 10 active; inconclusive = small, poorly fitted or top-dose-only inhibition, or a rising curve; inactive = flat fitted curve, though single readings scatter; no compound was filed as active;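 further: 0% = full activity with enzyme and -100% = basal without enzyme; dose as in the result columns while the protocol names 77 µM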
Rango release inh – inhibition of RanGTP-driven Rango-importin beta dissociation | O95149+P62826 | Biochemical FRET Rango-importin beta, RanGTP-induced dissociation | Potency, µM (series often up to 46.1 µM), without a hit: at the highest dose activity change, negative = inhibition | hit rate 0.071% among 340,000 | AID 540253; active means falling FRET ratio curve, often poorly fitted, with flat reads before Ran was added; inconclusive means other falling curves, or compound fluorescence or quenching; inactive means flat or rising ratio curve;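 further: potency means the concentration at half of the fitted maximal effect; % of control where 0% means no effect; nearly all actives have a fitted effect of over 45% in size; -100% = wells without RanGTP and RCC1; the record marks most hits as doubtful in a second field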
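Rango (0.1 uM)–importin beta (0.25 uM) complex; RanGTP-RCC1 trigger; 45 min RT; CFP/YFP FRET read.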
The depositor's hits bear a star; ? = inconclusive; nt = not tested or not shown; & = joins results of further samples. These rows are one share of the data (hit frequency here may not be typical).

Rango release inh	Rango-impB inh	GLA inh pH 4.5	miR-21 reporter	smiles
-14.7%	0.1%	4.1	1.5%	Cc1ccc(C(=O)CN2CCC(NC(=O)C3CCCCC3)CC2)cc1
-14.5%	-3.1%	nt	nt	C[C@H]1CN([C@@H](C)CO)C(=O)Cc2cc(NC(=O)CCN3CCOCC3)ccc2O[C@@H]1CN(C)Cc1ccc(Oc2ccccc2)cc1
3.5%	-0.9%	9.7	0.5%	CCN(C(=O)CCC(=O)N(CC)c1ccccc1)c1ccccc1
6.0%	4.5%	0.0	-15.9%	COc1ccc(C2CC(C(F)(F)F)n3nc(CO)c(Cl)c3N2)cc1OC (stereo unspecified)
7.6%	1.3%	-2.0	-8.3%	CC(C)(C)OC(=O)NCCC(=O)N/N=C/c1ccc2ncccc2c1
-9.6%	3.5%	-2.3	-2.1%	O=C(Cc1ccc(Cl)cc1)Nc1cc(S(=O)(=O)N2CCOCC2)ccc1N1CCCC1
-10.8%	0.5%	nt	-3.4%	O=C(Nc1ccc(S(=O)(=O)NCc2ccccc2)cc1)C1CCCCC1
7.2%	0.3%	0.2	5.7%	CCOc1ccc(S(=O)(=O)Nc2cccc(OC)c2)cc1
-17.8%	-0.8%	-3.1	-3.7%	CCOC(=O)N1CCC(=NNC(=O)COc2ccc(C#N)cc2)CC1
-10.5%	0.3%	nt	nt	CCOC(=O)C1=CN(Cc2cccc(F)c2)S(=O)(=O)NC1c1cccc(OC)c1 (stereo unspecified)
-0.4%	3.7%	-1.2	1.4%	CCn1c(C(C)NC(=O)c2cccs2)n[nH]c1=S (stereo unspecified)
-8.8%	1.6%	nt	0.1%	COc1ccccc1N1CC(C(=O)Nc2nnc(SCC(=O)NC(C)C)s2)CC1=O (stereo unspecified)
12.1%	1.0%	nt	12.5%	COC(=O)[C@@H](c1ccccc1)N(C)S(=O)(=O)c1cccc(S(=O)(=O)N(C)[C@@H](C(=O)OC)c2ccccc2)c1
-6.5%	-1.8%	nt	-20.5%	Nc1nc2nc(-c3ccccc3)cc(C(F)(F)F)c2s1
?	16.2%	7.7	0.1%	O=C(NCCN1C(=O)C2C3C=CC(C3)C2C1=O)N1CCCCC1 (stereo unspecified)
-1.1%	2.8%	4.4	1.1%	CN(C)S(=O)(=O)N1CCN(S(=O)(=O)N(C)C)CC1
-7.3%	0.7%	nt	nt	CN(C(=O)c1cccc(NC(=O)Cc2ccc(NC(=O)C3CCCN(C(=O)C4CC4)C3)cc2)c1)C1CCCC1 (stereo unspecified)
1.2%	2.3%	nt	nt	O=C(Nc1ccccc1N1CCOCC1)C1CCCO1 (stereo unspecified)
0.3%	0.0%	1.6	-12.4%	COc1ccc(OC)c(C(O)c2coc3ccc(O)c(CN4CCOCC4)c23)c1 (stereo unspecified)
10.9%	-0.6%	-12.5	-5.0%	CC(C)NCC(=O)Nc1c2c(nc3ccccc13)CCC2
4.8%	-3.0%	nt	nt	C=CCC[C@@H](Cc1ccc(F)cc1)C(=O)OC[C@@H](Cc1c[nH]c2ccccc12)NC(=O)[C@H](CC=C)CC(=O)N(CCO)Cc1ccccc1
-14.4%	1.4%	nt	nt	COCCN(C(=O)COC(=O)/C=C/c1cccs1)c1c(N)n(Cc2ccccc2)c(=O)[nH]c1=O
3.5%	2.6%	nt	-1.2%	Cc1ccc(S(=O)(=O)CC(=O)N2CCN(c3cccc(C(F)(F)F)c3)CC2)cc1
2.3%	0.5%	-10.2	21.2%	Cc1ccc(NC(=O)c2cccc(F)c2)cc1S(=O)(=O)N1CCCCCC1
-7.8%	-2.2%	6.1	3.4%	Cc1cc(C(=O)OCC(=O)NCc2ccco2)c(C)n1-c1ccccc1
0.6%	0.9%	nt	0.9%	Cc1nn(CC(=O)NNC(=O)c2cccc(Br)c2)c(C)c1[N+](=O)[O-]
?	?	-4.7	-74.1%	Cc1ccc2nc3c(cc(S(=O)(=O)c4ccccc4)c(=N)n3Cc3ccco3)c(=O)n2c1
6.1%	?	nt	nt	CCCCN(C(=O)CN(C)CC(=O)Nc1cccc(OC)c1)c1c(N)n(CCCC)c(=O)[nH]c1=O
-0.7%	-2.5%	-13.7	21.1%	C=C(C)COc1ccc(-c2[nH]ncc2-c2ccc(Br)cc2)c(O)c1
-11.2%	0.4%	nt	-8.9%	Cc1nn(C)cc1S(=O)(=O)Nc1ccc(C(F)(F)F)cc1

Gathered by group: those above with a furan ring, fused or not (three)
Rango release inh	Rango-impB inh	GLA inh pH 4.5	miR-21 reporter	smiles
0.3%	0.0%	1.6	-12.4%	COc1ccc(OC)c(C(O)c2coc3ccc(O)c(CN4CCOCC4)c23)c1 (stereo unspecified)
-7.8%	-2.2%	6.1	3.4%	Cc1cc(C(=O)OCC(=O)NCc2ccco2)c(C)n1-c1ccccc1
?	?	-4.7	-74.1%	Cc1ccc2nc3c(cc(S(=O)(=O)c4ccccc4)c(=N)n3Cc3ccco3)c(=O)n2c1

The list goes on:
Rango release inh	Rango-impB inh	GLA inh pH 4.5	miR-21 reporter	smiles
-14.0%	0.4%	-5.7	-1.3%	COc1ccc(C)cc1NC(=S)NC(C)c1ccc(OC)c(OC)c1 (stereo unspecified)
-0.2%	6.8%	0.5&0.5	-3.1%	COC(=O)[C@@]1(Cc2ccc(F)cc2)[C@@H]2[C@@H](CC(=O)[C@H]2CC(=O)C(=O)N(C)C)CN1C(=O)c1ccccc1
-9.4%	-2.5%	8.6	0.9%	Cc1cccc(NC2=CC(=O)OC(C)C2)c1 (stereo unspecified)
2.6%	0.4%	nt	nt	O=[N+]([O-])c1cc(CS(=O)(=O)Oc2ccc(Cl)cc2)c(O)c([N+](=O)[O-])c1
2.1%	4.7%	3.5	-7.9%	Fc1ccccc1N1CCN(Cc2cnc(Cl)s2)CC1
13.5%	-0.1%	nt	-3.8%	NC(=NCCc1ccc(Cl)cc1)NS(=O)(=O)c1ccccc1
-9.8%	-4.4%	-1.3	-16.6%	COc1ccc(NC(=O)CN2CCC(C)CC2)c([N+](=O)[O-])c1
7.6%	0.1%	3.5	2.2%	CC(OC(=O)C1=Cc2ccccc2OC1)C(=O)NC(C)(C)C (stereo unspecified)
-22.2%	-0.6%	nt	nt	CCCCCCCCN1[C@@H](CC(=O)OCC)c2cc(C(F)(F)F)ccc2S1(=O)=O
-4.1%	2.7%	1.5	-8.5%	Cn1cccc1/C=N\NC(=O)c1cncc(Br)c1
8.8%	-3.5%	3.2	-2.1%	O=C(Nc1ccccc1)/C(=C/c1cccnc1)NC(=O)c1ccco1
14.6%	?	6.3	-6.7%	COc1ccc(NC(=O)Nc2ccccc2C(N)=O)cc1OC
-3.8%	7.0%	7.5	-2.7%	O=C(Nc1ccc2snnc2c1)N1CCN(c2ccccc2)CC1
-11.8%	0.8%	nt	2.7%	CC(=O)N1c2ccccc2CCc2ccc(N)cc21
0.7%	0.4%	nt	nt	NC(=O)c1ccccc1OCC(=O)Nc1cccnc1Cl
-21.9%	1.2%	0.8	-2.4%	CCc1ccc(CN(C)C(=O)CC2C(=O)NCCN2Cc2ccoc2)cc1 (stereo unspecified)
14.8%	-0.5%	-2.4	-0.8%	CN(C)c1ccc(C(=S)N2CCN(Cc3ccccc3)CC2)cc1
23.9%	?	-13.1	11.3%	COc1cccc(CNc2nc3ccccc3n2CCN2CCCCC2)c1OC
8.1%	1.4%	nt	nt	O=C(COC(=O)CCc1nc2ccccc2c(=O)[nH]1)Nc1c(Cl)cccc1C(F)(F)F
-4.5%	0.2%	-1.8	2.4%	COc1cc(NS(C)(=O)=O)c(OC)cc1NC(=O)c1cccc(F)c1
4.7%	-0.2%	nt	-46.6%	CC1(C)Cc2c(c(N3CCCC3)nc3sc(C(=O)Nc4ccccc4)c(N)c23)CO1
-9.5%	0.4%	nt	-3.8%	CC1Cc2cc(S(=O)(=O)N3CCCCC3)ccc2N1C(=O)C1CCC1 (stereo unspecified)
-18.8%	4.5%	8.9	?	Cc1c(C#N)c(NC(=O)CCl)n(Cc2cccs2)c1C
1.6%	-0.1%	nt	nt	Cc1ccc2c(c1)C1CN(C)CCC1N2S(=O)(=O)c1cccc(F)c1 (stereo unspecified)
6.7%	-0.3%	1.5	-0.6%	CCC(CC)C(=O)Nc1cc(OC)c(OC)cc1C(=O)O
31.6%	-1.3%	2.8	-1.1%	Cc1ccc(NCc2nnc(SCC(=O)NNC(=O)Cc3ccccc3)n2C)cc1
1.1%	-2.1%	10.8	-6.9%	Cc1nnc(NC(=O)CSc2nnc(CNC(=O)C34CC5CC(CC(C5)C3)C4)n2C2CCCCC2)s1
-4.2%	1.2%	nt	3.5%	COc1ccccc1CNC(=O)CNCCc1ccc(OC)c(OC)c1
-0.3%	-1.7%	nt	nt	CCOc1ccc(OCCOC(=O)CN2C(=O)NC3(CCCC3)C2=O)cc1
-14.5%	-1.5%	-0.2	-50.3%	Cc1cccc(OCc2nc(-c3nonc3N)no2)c1C
-14.5%	-1.9%	-6.2	-2.3%	O=C(O)CC1S/C(=N/N=C/c2ccc(Br)cc2)N(c2ccccc2)C1=O (stereo unspecified)
2.5%	0.2%	-5.5	-6.2%	Cc1sc2nc(CSc3cccc(C(F)(F)F)c3)[nH]c(=O)c2c1C
-2.8%	-4.3%	-6.2	-7.5%	O=C(OCn1nnc2ccccc2c1=O)c1ccc(N2CCOCC2)c([N+](=O)[O-])c1
2.5%	-1.4%	5.2	-6.6%	CCOc1ccc(C(C)=O)cc1CSc1nc2nc(C)cc(C)n2n1
17.6%	-5.1%	nt	nt	CN(CC(=O)Nc1ccc(F)c(F)c1F)C(=O)c1cc(-c2ccncc2)nc2ccccc12
-4.9%	2.0%	nt	3.8%	CC1(c2ccccc2)NC(=O)N(CC(=O)Nc2ccc(C(N)=O)cc2)C1=O (stereo unspecified)
-19.3%	-1.7%	-2.9	16.4%	COc1ccc2nc(C(F)(F)Cl)c(C#N)c(N)c2c1
3.9%	1.0%	9.4	-21.5%	Cc1cccc(N2CCN(C(=O)c3cc4ccccc4oc3=O)CC2)c1C
1.5%	0.0%	0.2	0.6%	CC(C(=O)O)N(C(=O)c1ccccc1)c1ccc(F)cc1 (stereo unspecified)
-8.1%	?	nt	nt	c1ccc2nc(NN=C3CCCCC3)ccc2c1
-8.0%	-2.8%	6.8	-0.2%	COc1ccc(CCNC(=O)Cn2c(-c3nonc3N)nc3ccccc32)cc1OC
9.2%	-1.1%	nt	-3.7%	CC(C)(C)C(=O)Nc1ccc(S(=O)(=O)N2CCCC2)cc1
0.7%	-0.6%	-2.9	-7.9%	Cn1c2ccccc2c2c(C(=O)N3CCN(C(=O)c4ccco4)CC3)cn(C3CCCCC3)c(=O)c21
?	?	18.0	-6.6%	CCCCC1OC2(C)OC(=N)C1(C#N)C(C#N)(C#N)C2c1ccccc1 (stereo unspecified)
-4.7%	0.9%	3.3	-11.1%	COCCOC(=O)c1c(NC(=O)CNC2CCCc3ccccc32)sc(C(N)=O)c1C (stereo unspecified)
-7.3%	-1.3%	-12.9	-21.3%	NC(=O)c1ccc2nc(NC(=O)c3ccc(N)cc3)sc2c1
?	6.9%	nt	nt	CCN(C(=O)COC(=O)Cn1c(=O)oc2ccccc21)c1c(N)n(Cc2ccccc2)c(=O)[nH]c1=O
10.6%	-5.3%	-3.3	1.9%	COc1cc(C2=NOC(C(=O)N3CCOCC3)C2)cc(OC)c1OC (stereo unspecified)
-27.5%	-2.0%	0.0	-6.6%	O=C(Nc1cccc2ncccc12)c1ccc(-c2ccc(Br)cc2)o1
24.6%	6.1%	nt	-49.5%	CC(C)(C)c1ccc(C(=O)NC(=S)NNC(=O)COc2ccccc2)cc1
-5.1%	-6.9%	7.2	-9.8%	CC(Sc1nc(-c2ccccc2)cc(C(F)(F)F)n1)C(=O)NCCN1CCOCC1 (stereo unspecified)
6.5%	0.3%	-4.3	-35.0%	CC(=O)NC(=O)c1ccc(-c2ccc(Cl)cc2)o1
20.1%	-1.0%	-2.7	-1.9%	Cc1ccc(-n2nnnc2-c2cccc(C)c2)cc1
-8.9%	0.0%	nt	-19.6%	O=C1/C(=C/c2cccs2)SC(=S)N1CCC(=O)N1CCCCC1CCO (stereo unspecified)
6.2%	0.5%	nt	nt	CC(C)(C)OC(=O)N1CCC(NC(=O)c2[nH]cnc2C(=O)Nc2ccc(Cl)cc2)CC1
0.4%	-5.8%	nt	-7.6%	Cc1cccc(C)c1OCC(=O)NCc1ccccc1
-1.1%	-2.3%	nt	21.2%	C=CCC1(CC=C)CCCN1C(=O)c1cc(COc2ccc(-n3cncn3)cc2)on1
